Screening results as filed in PubChem.
Bfl-1 A1 inh – inhibitors of the anti-apoptotic protein A1, read as caspase activation; MEF A1-2A-BIM cells, Caspase-Glo 3/7 luminescence, 3 h; percent of clofoctol response, vehicle zero; caspase activation, % (test concentration not listed); actives 0.066% (n = 330,000); AID 2462;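 active = over half of replicate activation scores above 10%, or exactly half above 10 with the replicate mean above 10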;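 note: wells of about 30 µL received 50 nL stock; many hits fall short of the cut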
E coli growth – blocks Escherichia coli growth. actives 0.21% (n = 330,000). OD600 absorbance (test concentration not listed). OD600, 23 h; active compounds read low;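 active = OD600 absorbance below the run mean of sample wells minus 3.6 SD, in any replicate, cut at about 0.56 in these data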;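 note: stock transfer was 300 nL into about 60 µL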
AF4-AF9 inh – blocks AF4 peptide binding to human AF9; P42568; AlphaScreen, biotin-AF4 peptide binding to FLAG-AF9; inhibition, % at 10 µM; actives 0.47% (n = 350,000); AID 651704;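 active = every replicate reaching a set inhibition limit, whatever the replicate mean, cut at about 25% in these data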;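 note: 0% = plate neutral control median and 100% = total signal loss; the record names both 10 and 1 µM as test concentration; the first replicate is given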
Target sequence (P42568 whole entry, looked up): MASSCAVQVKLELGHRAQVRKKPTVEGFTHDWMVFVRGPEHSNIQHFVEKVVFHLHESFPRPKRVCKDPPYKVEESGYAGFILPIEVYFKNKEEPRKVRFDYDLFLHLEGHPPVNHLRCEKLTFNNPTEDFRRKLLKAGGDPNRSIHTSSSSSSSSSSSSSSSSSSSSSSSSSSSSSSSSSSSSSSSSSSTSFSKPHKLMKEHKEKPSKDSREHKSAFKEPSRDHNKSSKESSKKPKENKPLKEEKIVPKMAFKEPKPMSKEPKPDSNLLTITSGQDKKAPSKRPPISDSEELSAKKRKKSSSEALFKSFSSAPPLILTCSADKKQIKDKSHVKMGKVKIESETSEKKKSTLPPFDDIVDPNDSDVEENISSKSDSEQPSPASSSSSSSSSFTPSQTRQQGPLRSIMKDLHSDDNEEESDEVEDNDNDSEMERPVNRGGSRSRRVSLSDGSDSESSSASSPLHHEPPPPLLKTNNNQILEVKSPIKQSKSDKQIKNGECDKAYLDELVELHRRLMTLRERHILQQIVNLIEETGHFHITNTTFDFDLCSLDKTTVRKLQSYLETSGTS
T cruzi inh – blocks replication of Trypanosoma cruzi; inhibition, % (no concentration beside the values); AID 1885; T. cruzi beta-gal in NIH3T3, luminescence, 90 h; actives 1.4% (n = 300,000);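 active = mean inhibition across valid replicates above about 55%, limit read from the data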;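 note: signal also drops with host cell toxicity which is not excluded here; 0% = plate median of DMSO wells and 100% = zero luminescence signal; higher percent means less beta-gal luminescence so fewer parasites; stock transfer was 50 nL into about 50 µL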
UCH37 inh – human UCH37 deubiquitinating enzyme inhibition | actives 0.33% (n = 330,000) | inhibition, % (no concentration beside the values) | AID 588478 | purified proteasome/UCH37, Ub-AMC cleavage fluorescence | Q9Y5K5;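 active = mean of two replicates above 20%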;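 note: 0% = compound-free wells with enzyme and 100% = wells lacking proteasome; stock transfer was 100 nL into about 20 µL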
Target sequence (Q9Y5K5 whole entry, looked up): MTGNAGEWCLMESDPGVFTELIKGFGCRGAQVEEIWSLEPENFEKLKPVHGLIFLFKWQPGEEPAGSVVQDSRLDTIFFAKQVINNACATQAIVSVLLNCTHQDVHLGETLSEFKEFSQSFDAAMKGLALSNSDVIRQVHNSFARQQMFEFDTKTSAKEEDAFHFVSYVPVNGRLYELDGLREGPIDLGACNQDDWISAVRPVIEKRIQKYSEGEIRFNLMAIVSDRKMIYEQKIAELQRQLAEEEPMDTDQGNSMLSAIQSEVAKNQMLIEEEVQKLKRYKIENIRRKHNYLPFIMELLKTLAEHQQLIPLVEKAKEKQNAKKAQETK
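Material: human UCH37 enzyme supplied as purified proteasome complex / Amount: 0.15 nM proteasome as dispensed / Buffer or medium: pH 7.4 Tris-HCl (50 mM) with ovalbumin, ATP-MgCl2, DTT / Times: preincubation 30 min, reaction 25 min, room temperature / Technique: AMC fluorescence from Ub-AMC cleavage, excitation 355 nm, emission 460 nm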
Ecoli rRNA inh – selective bacterial rRNA inhibition in E. coli | GFP signal change (wild-type ribosome), % (no concentration beside the values) | E. coli WT GFP vs humanized-ribosome RFP mutants, fluorescence, 24 h; active compounds read low; DMSO median 0, no signal -100 | actives 1.6% (n = 350,000) | AID 720706;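 active = significant combined selectivity score with lowered wild-type GFP, culture density cut under 30%, mutant RFP and density less affected; inactive = any of these conditions unmet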; note: one replicate is shown; some compounds called inactive have numbers as strong as hits
FGF22 binding – shifts melting point of recombinant human FGF22; calls only at 9.99 µM; actives 1.5% (n = 340,000); recombinant FGF22 thermal shift, SYPRO orange fluorescence; percent of sucrose octasulfate shift, DMSO zero;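 active = melting point raised past a set limit in the mean and every replicate; three in four hits are not shown here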
Target sequence (Q9HCT0 whole entry, looked up): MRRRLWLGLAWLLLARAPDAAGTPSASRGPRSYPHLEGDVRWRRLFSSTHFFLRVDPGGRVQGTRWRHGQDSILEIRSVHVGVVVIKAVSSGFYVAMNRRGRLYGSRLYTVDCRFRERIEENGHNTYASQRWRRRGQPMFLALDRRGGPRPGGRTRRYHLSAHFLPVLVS
Beta cell apopt – blocks beta cell apoptosis. INS-1E cytokine-induced death, ATP luminescence, 48 h; percent of positive-control rescue, neutral wells zero. actives 0.8% (n = 300,000). protection from apoptosis, % (test concentration not listed);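 active = all replicates at 75% or more, or half of them and the mean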;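 note: 0% = cytokine-treated negative control wells and 100% = positive control rescue; higher means more ATP so stronger rescue from cytokine killing; wells of about 40 µL received 100 nL stock; the first replicate is given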
Ecoli rRNA inh OD600 – second read-out of Ecoli rRNA inh, no call of its own (marks repeat the call); OD600 change, %; measured here: OD600 growth;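 optical density of the mix in the first replicate; 0 = DMSO median and -100 = no signal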
Ecoli rRNA inh RFP – further read-out of Ecoli rRNA inh, marked with its call; RFP signal change, %; measured here: RFP humanized mutant strains;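 first replicate; 0 = DMSO median and -100 = no signal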
Active calls of the source: *; i = inactive; x = not tested or not shown; + = active, no number. This is a subset; rates above refer to the full screens.

| cpd | compound | AF4-AF9 inh | T cruzi inh | FGF22 binding | Bfl-1 A1 inh | E coli growth | Ecoli rRNA inh RFP | UCH37 inh | Ecoli rRNA inh OD600 | Ecoli rRNA inh | Beta cell apopt |
| --- | --- | --- | --- | --- | --- | --- | --- | --- | --- | --- | --- |
| 1 | COc1ccc2ccccc2c1CN1CCSCC1 | 6.4 | -4 | i | -6.6 | 0.69 | -1.8 | 0.3 | 7 | 0 | 4 |
| 2 | Cc1cc(C)c(C#N)c(SCCS(=O)(=O)Cc2ccc(Cl)cc2)n1 | x | -7 | x | 0.1 | 0.72 | x | 4.6 | x | x | 0 |
| 3 | O=C(Nc1ccc(N2CCOCC2)cc1)Nc1cnsn1 | x | 16 | x | 1.5 | 0.72 | x | 2.4 | x | x | -2 |
| 4 | Cc1cc(C)cc(N(CC(=O)NC2CCCC2)C(=O)CCC(=O)Nc2cc(C)ccn2)c1 | 1.2 | 2 | i | 0.7 | 0.69 | -0.4 | 3.2 | 10 | 7 | -5 |
| 5 | Cc1cc(=O)oc2c(C)c(OC(C)C(=O)Nc3ccc(N4CCC(C)CC4)cc3)ccc12 (stereo not given) | 4.1 | 35 | i | -1.2 | 0.7 | 1.0 | 3.4 | 11 | 9 | 13 |
| 6 | CCOC(=O)c1c(-c2ccccc2)csc1NC(=O)c1ccc(S(=O)(=O)N2CCOCC2)cc1 | 0.0 | 24 | i | 0.0 | 0.68 | 1.9 | -71 | 9 | 10 | 9 |
| 7 | O=C(NCc1ccccc1)c1ccc(S(=O)(=O)Nc2cccc(C(F)(F)F)c2)cc1 | -7.6 | -9 | i | -1.0 | 0.68 | 7.5 | 2.2 | -9 | 3 | -2 |
| 8 | O=S(=O)(c1ccc(S(=O)(=O)N2CCCN(Cc3ccccc3)C2)cc1)N1CCCCCC1 | x | 43 | x | 0.2 | 0.67 | x | 5.7 | x | x | 1 |
| 9 | O=C(CNC(=O)c1cccc(OC(F)F)c1)OCC(=O)c1ccccc1 | -2.5 | -3 | i | 1.3 | 0.69 | -0.4 | -0.4 | 2 | 14 | -6 |
| 10 | COc1ccc(NC(=O)c2nn(C34CC5CC(CC(C5)C3)C4)cc2[N+](=O)[O-])cc1 | -8.6 | 17 | i | -0.4 | 0.65 | 16 | 1.7 | -2 | -3 | -2 |
| 11 | CC(C)(C)OC(=O)N[C@@H](Cc1ccccc1)c1nnc(SCC(=O)c2ccc(Cl)cc2)o1 | x | -3 | x | -0.2 | 0.75 | x | 1.8 | x | x | 19 |
| 12 | O=C(c1cc(F)c(F)c(F)c1F)N1CCN(Cc2ccc3c(c2)OCO3)CC1 | -2.6 | 13 | i | -0.8 | 0.71 | 3.2 | 3.5 | -4 | 4 | 0 |
| 13 | c1ccc(-c2ccc(-c3ccncn3)cc2)cc1 | -0.8 | 46 | i | -3.7 | 0.65 | -2.0 | -20 | 17 | 9 | x |
| 14 | CC(C)(C)c1ccc(-c2noc(C(=O)NN)n2)cc1 | -0.1 | -1 | i | 0.4 | 0.67 | -0.1 | 3.9 | 6 | 5 | x |
| 15 | COc1ccc(-c2n[nH]c3c2CN(C(=O)c2ccc(F)cc2)CC3)cc1 | 0.8 | -8 | i | 1.4 | 0.71 | -0.1* | 4.0 | -10* | -24* | 3 |
| 16 | CC(=O)NCCC1CCN(C(=O)C2CCC(=O)N(C3CCCC3)C2)CC1 (stereo not given) | -9.0 | 15 | i | 0.2 | 0.73 | -2.2 | 4.2 | 13 | 16 | -2 |
| 17 | O=[N+]([O-])c1ccc(CS(=O)(=O)c2ncn[nH]2)cc1 | -0.5 | -2 | i | 0.7 | 0.68 | -0.6 | 2.0 | 5 | -3 | -7 |
| 18 | CCCCC(=O)NC(=S)Nc1nnn(CCC)n1 | -1.2 | -21 | i | 0.5 | 0.74 | -0.7 | 1.5 | 2 | 8 | 5 |
| 19 | COc1cccc2c1cc1c(=O)n(CC(=O)N3CCCCCC3)nc(C)n12 | 0.5 | 4 | i | 0.6 | 0.69 | 0.0 | i | 16 | 11 | 6 |
| 20 | CC(=O)c1ccc2c(ccc3ccccc32)c1 | x | 1 | x | -1.5 | 0.71 | x | 1.3 | x | x | 1 |
| 21 | COC(=O)c1ccc(-n2nnnc2SCC(=O)Nc2cc(OC)ccc2OC)cc1 | 2.4 | 15 | i | 0.1 | 0.73 | -3.0 | -4.8 | -3 | -2 | 3 |
| 22 | CCOc1cc(/C=N/NC(=O)C(=O)NCc2ccc3c(c2)OCO3)ccc1OCC(=O)N1CCOCC1 | -2.9 | 8 | i | 0.3 | x | 0.7 | x | 17 | 7 | -3 |
| 23 | Cn1ncnc1SCc1cn2cccnc2n1 | -3.0 | -7 | i | 0.1 | 0.72 | 0.1 | -368 | 10 | 10 | 6 |
| 24 | CN=C(Nc1ccc(C(=O)OC)s1)c1ccccc1 | 2.2 | 3 | x | -0.2 | 0.68 | 1.6 | 7.1 | 0 | 11 | -7 |
| 25 | CCOC(=O)C1=C(C)NC(C)=C(C(=O)OCC)C1C(=O)OCC(=O)NC(C)c1ccccc1 (stereo not given) | -2.5 | x | i | x | 0.71 | -4.2 | -27 | 8 | 1 | x |
| 26 | CCCCNC(=O)c1c(C)cc(=O)oc1C | x | -12 | x | 0.0 | 0.76 | x | 18 | x | x | -11 |
| 27 | O=C(Cc1cccs1)Nc1ccon1 | x | -4 | x | 0.8 | 0.61 | x | -0.5 | x | x | -6 |
| 28 | COc1cccc(NC(=O)c2ccccc2C(F)(F)F)c1 | -0.9 | -5 | i | 0.2 | 0.63 | -2.8 | 1.7 | 3 | 5 | -5 |
| 29 | COC(=O)Cc1c(C(=O)OC)nnn1-c1cccc(C(F)(F)F)c1 | -5.1 | -8 | i | -0.7 | 0.7 | 1.2 | 2.5 | 5 | 5 | -2 |
| 30 | COc1cccc(-c2nn(C)c3sc(C(=O)NCc4ccco4)cc23)c1 | x | 29 | x | -0.4 | 0.69 | x | -8.4 | x | x | -2 |
| 31 | O=C(NCCc1ccccc1)C1CCCN1C(=O)Nc1ccc(F)cc1 (stereo not given) | x | -2 | x | 3.6 | 0.69 | x | 2.8 | x | x | 1 |
| 32 | O=C(CCCn1c(=S)[nH]c2ccsc2c1=O)NCc1ccco1 | x | -14 | x | -0.6 | 0.64 | x | 1.9 | x | x | -2 |
| 33 | CCOC(=O)C1CCN(C(=O)c2cccc(S(=O)(=O)N3CCCc4ccccc43)c2)CC1 | 2.3 | x | i | x | 0.71 | -3.6 | 6.0 | -35 | -15 | x |
| 34 | CCn1c(SCc2ccc(C)cc2)nnc1C1CCN(S(=O)(=O)c2ccc(OC)cc2)CC1 | x | 25 | x | 0.0 | 0.72 | x | 0.1 | x | x | 12 |
| 35 | COc1ccc(-c2cc(C(=O)Nc3cc(C)on3)c3ccccc3n2)c(OC)c1 | -0.8 | 5 | i | 0.0 | 0.71 | -4.6 | -125 | -6 | -7 | 8 |
| 36 | C/C(CC(=O)Nc1ccc2c(c1)OCCO2)=N\NC(=O)COc1ccc(C)cc1 | 4.4 | -3 | x | 0.6 | x | x | x | x | x | -5 |
| 37 | C=CCN(CC=C)CC(=O)Nn1c(C)ccc1C | -2.6 | x | i | x | 0.68 | x | 2.5 | x | x | x |
| 38 | COc1cc2c(C(=O)N3CCN(c4ccccc4C)CC3)c(C)oc2cc1Br | x | 30 | x | 0.0 | 0.77 | x | 0.2 | x | x | -1 |
| 39 | CN(C)c1nc(N)c([N+](=O)[O-])c(N2CCCCCC2)n1 | 5.7 | -11 | i | 0.4 | 0.69 | -9.5 | 10 | -14 | -10 | -2 |
| 40 | CC1CCCCC12NC(=O)N(CC(=O)OCc1ccccc1F)C2=O (stereo not given) | -0.6 | x | i | -0.3 | 0.73 | -9.4 | 1.7 | -35 | -14 | 5 |
| 41 | CCN1CCN(C(c2cc3cccc(C)c3[nH]c2=O)c2nnnn2Cc2ccccc2)CC1 (stereo not given) | x | -12 | x | -0.1 | 0.68 | x | -19 | x | x | -14 |
| 42 | CCn1ccnc1CNC(=O)CC1C(=O)NCCN1Cc1ccc(OC)cc1OC (stereo not given) | -5.1 | 6 | i | 0.4 | 0.7 | 0.0 | -0.7 | 7 | 10 | -7 |
| 43 | c1ccc(N2CCN(CC3CCCCC3)CC2)cc1 | -1.9 | -6 | i | 0.5 | 0.69 | -2.2 | 0.9 | 4 | 0 | 139* |
| 44 | Cc1sc(-c2ccncc2)nc1OC(=O)c1ccc(Cl)cc1 | x | -16 | x | 1.1 | 0.69 | x | 0.9 | x | x | -5 |
| 45 | O=C(O)/C=C/c1cccc(NC(=O)c2ccccc2)c1 | -1.3 | -15 | i | -6.8 | 0.68 | -5.3 | 3.1 | 3 | 3 | 12 |
| 46 | Cc1noc(C)c1CSCC(=O)N(C)CC(=O)Nc1ccc(Cl)c(C(F)(F)F)c1 | 3.7 | 2 | + | -0.3 | 0.68 | -2.1 | 5.8 | -9 | -2 | 4 |
| 47 | COc1ccc(OC)c(S(=O)(=O)Nc2ccc(-c3ccc4nnc(C)n4n3)cc2)c1 | -0.7 | 4 | i | -1.1 | 0.69 | 0.2 | 2.2 | -7 | -1 | -1 |
| 48 | COCCCN1CN(Cc2ccccc2)CNC1=S | -2.5 | -7 | i | 0.5 | 0.69 | -9.7 | 0.7 | 11 | 10 | -5 |
| 49 | Cc1cnc(C)c(N2CCN(C(=O)C3CCC(=O)N(CCc4cccc(F)c4)C3)CC2)n1 (stereo not given) | -0.1 | 1 | i | -0.2 | 0.73 | -0.6 | 3.2 | -5 | -4 | 0 |
| 50 | COC(=O)c1ccc(NC(=O)CCN2C(=O)NC(C)(C)C2=O)cc1 | -1.2 | x | i | -0.1 | 0.67 | -2.8 | 3.4 | 2 | 4 | 0 |
| 51 | CCNc1nc(NCC)n2c(SCC(=O)NC34CC5CC(CC(C5)C3)C4)nnc2n1 | x | -7 | x | 0.3 | 0.66 | x | 5.0 | x | x | 3 |
| 52 | Cc1ccccc1C(=O)NC1CCN(Cc2nnnn2C2CCCC2)CC1 | x | 0 | x | -0.3 | 0.66 | x | 0.4 | x | x | 3 |

Fetched by compound from the entries so far (five):
| cpd | compound | AF4-AF9 inh | T cruzi inh | FGF22 binding | Bfl-1 A1 inh | E coli growth | Ecoli rRNA inh RFP | UCH37 inh | Ecoli rRNA inh OD600 | Ecoli rRNA inh | Beta cell apopt |
| --- | --- | --- | --- | --- | --- | --- | --- | --- | --- | --- | --- |
| 45 | O=C(O)/C=C/c1cccc(NC(=O)c2ccccc2)c1 | -1.3 | -15 | i | -6.8 | 0.68 | -5.3 | 3.1 | 3 | 3 | 12 |
| 41 | CCN1CCN(C(c2cc3cccc(C)c3[nH]c2=O)c2nnnn2Cc2ccccc2)CC1 (stereo not given) | x | -12 | x | -0.1 | 0.68 | x | -19 | x | x | -14 |
| 44 | Cc1sc(-c2ccncc2)nc1OC(=O)c1ccc(Cl)cc1 | x | -16 | x | 1.1 | 0.69 | x | 0.9 | x | x | -5 |
| 51 | CCNc1nc(NCC)n2c(SCC(=O)NC34CC5CC(CC(C5)C3)C4)nnc2n1 | x | -7 | x | 0.3 | 0.66 | x | 5.0 | x | x | 3 |
| 48 | COCCCN1CN(Cc2ccccc2)CNC1=S | -2.5 | -7 | i | 0.5 | 0.69 | -9.7 | 0.7 | 11 | 10 | -5 |
